PINK1 expr mod: PINK1 expression modulation; 0.2% of 410,000 active; Potency, µM (series often up to 76.6 µM), for the others: top-dose activation (PINK1 increase), hits mostly activators; PINK1 immunofluorescence, high-content cytometry, 24 h; active = well fitted activation curve with a large enough effect; inconclusive = small, poorly fitted or top-dose-only effect; inactive = flat fitted curve, though single readings scatter; cell line not stated here;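 note: potency is the fitted concentration of half-maximal effect; % of control where 0% means no effect; nearly all actives have a fitted effect of over 65% in size; a mitochondrial uncoupler was the plate control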
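Cells are seeded, rested 12 hours, then given compound at five concentrations or DMSO for 24 hours. After fixation, blocking and antibody staining, PINK1 amount and mitochondrial localization are scored; CCCP serves as control.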
D2 potentiator: potentiates the human D2 dopamine receptor allosterically. P14416. 0.23% of 360,000 active. DiscoveRx D2 beta-arrestin cells, luminescence, 90 min; 100% = 57 uM dopamine signal. potentiation, % (no concentration beside the values); active = potentiation of 50% or more; inconclusive = 30% to 50%; inactive = 30% or less;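 note: compound concentration not given in the record; tested on top of an EC20 dose of dopamine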
Target sequence (P14416 whole entry, looked up): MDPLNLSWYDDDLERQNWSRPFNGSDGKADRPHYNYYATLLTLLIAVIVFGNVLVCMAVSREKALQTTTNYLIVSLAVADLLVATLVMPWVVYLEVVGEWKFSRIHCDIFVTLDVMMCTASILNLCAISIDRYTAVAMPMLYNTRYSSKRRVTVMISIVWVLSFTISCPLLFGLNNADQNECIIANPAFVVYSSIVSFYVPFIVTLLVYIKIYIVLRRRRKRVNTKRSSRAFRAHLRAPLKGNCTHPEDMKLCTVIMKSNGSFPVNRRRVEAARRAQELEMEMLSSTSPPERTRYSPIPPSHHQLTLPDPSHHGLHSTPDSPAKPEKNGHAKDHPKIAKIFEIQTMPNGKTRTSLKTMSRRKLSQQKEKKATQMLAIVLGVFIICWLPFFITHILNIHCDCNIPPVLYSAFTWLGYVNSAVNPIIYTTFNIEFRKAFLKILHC
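PathHunter D2 cells, attached overnight at 37 deg C, received compound in DMSO plus dopamine at EC20 (50 nM final) for 90 min at 37 deg C. Beta-arrestin recruitment was read as luminescence after 1 h with detection reagent at ambient temperature.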
TRPML1 agonist: activates the human TRPML1 channel. Q9GZU1. TRPML1-expressing cells, Ca2+ dye fluorescence, FDSS; host cell line not named in the record; reference of the full effect not given here. activation, % (test concentration not listed). 0.12% of 410,000 active. AID 624414; in the data active = activation above about 50%; inconclusive = about 30% to 50%; inactive = below about 30%; note: 0% is about no effect; the text of the record puts the active cut at 80%
Target sequence (Q9GZU1 whole entry, looked up): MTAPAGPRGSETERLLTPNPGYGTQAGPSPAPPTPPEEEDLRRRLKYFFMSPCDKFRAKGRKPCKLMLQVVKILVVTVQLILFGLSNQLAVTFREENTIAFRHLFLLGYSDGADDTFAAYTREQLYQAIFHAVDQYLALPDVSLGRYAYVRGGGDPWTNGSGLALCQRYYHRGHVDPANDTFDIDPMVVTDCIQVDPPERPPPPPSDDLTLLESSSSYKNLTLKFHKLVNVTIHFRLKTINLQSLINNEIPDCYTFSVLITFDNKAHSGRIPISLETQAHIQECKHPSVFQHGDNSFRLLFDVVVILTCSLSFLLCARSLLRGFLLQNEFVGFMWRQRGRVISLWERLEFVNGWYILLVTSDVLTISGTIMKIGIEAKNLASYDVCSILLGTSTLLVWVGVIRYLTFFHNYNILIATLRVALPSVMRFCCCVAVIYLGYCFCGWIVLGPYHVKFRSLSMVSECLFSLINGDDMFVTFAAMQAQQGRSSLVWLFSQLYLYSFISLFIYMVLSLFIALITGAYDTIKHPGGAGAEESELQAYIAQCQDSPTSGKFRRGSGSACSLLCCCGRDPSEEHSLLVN
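Agonist activity was taken from a 110 s kinetic Ca2+ dye read on the FDSS after pinning compounds onto TRPML1-DL cells. The cells were seeded at 1,500/well with Tet inducer, incubated about 16 h, then dye-loaded at room temperature.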
TRPML1 blocker: inhibitors of human TRPML1 channel. activity change, negative = inhibition, % (no concentration beside the values). Q9GZU1. TRPML1-inducible cells, Ca2+ dye fluorescence, FDSS; active compounds read low; inhibition of EC80 agonist-evoked calcium signal. 0.02% of 390,000 active; in the data active means activity change below about -50%; inconclusive means about -30% to -50%; inactive means above about -30%;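 note: stimulus is agonist 54-4 at its EC80 concentration; % is set by controls: 0 for no effect and ±100 for the full control effect; compound concentration not given in the record; the text of the record puts the active cut at -80%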
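TRPML1-DL cells, Tet-induced overnight (~16 h, 37 °C) at 1,500 cells/well, were loaded with Ca8 no-wash dye plus quencher for 45-90 min at room temperature. Compounds were pinned during FDSS kinetic reading; agonist 54-4 at EC80 (4 uM final) then added.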
D2 ag: human D2 receptor agonism in beta-arrestin assay; DiscoveRx PathHunter D2 beta-arrestin, luminescence, 90 min; 100% = 57 uM dopamine signal; activation, % (no concentration beside the values); 0.084% of 360,000 active; AID 624465; in the data active = activation above about 40%; inconclusive = about 15% to 40%; inactive = below about 15%; note: compound concentration not given in the record; the text of the record calls up to 30% inactive
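Agonist mode: compounds alone added to overnight-plated D2 PathHunter cells for 90 min at 37 C, with 57 uM final dopamine (EC100) defining full response. Beta-arrestin recruitment detected by chemiluminescent reagent, read after 1 h at ambient temperature.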
Six1-Eya2 blk: blocks human Six1 binding to Eya2 | AlphaScreen GST-Six1/His-Eya2 binding, biochemical; active compounds read low; control for the full effect not named in the record | activity change, % (no concentration beside the values) | 0.56% of 360,000 active; in the data active = activity change below about -65%; inconclusive = about -30% to -65%; inactive = above about -30%; note: % is set by controls: 0 for no effect and ±100 for the full control effect
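Six1/Eya2 binding was read as AlphaScreen signal after compounds were pinned into GST-Six1 plus His-tagged Eya2 (5X stock 250/500 nM) in pH 8.0 Tris/NaCl/TCEP buffer, beads added, then incubated 1 h, 37 C, dark.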
Starred values were filed as active, the others as inactive; ? = inconclusive; . = no result given; [ ] = dose if it differs, or a comment.

SMILES	PINK1 expr mod	D2 potentiator	TRPML1 agonist	TRPML1 blocker	D2 ag	Six1-Eya2 blk
CC(=O)N1CCC(N(CCN2CCOCC2)C(=O)Nc2ccc(Cl)c(Cl)c2)CC1	2.7%	6	0.3	5	2.4	3
CC1(C)Cc2c(sc3c2c(=N)n(Cc2ccco2)c(=O)n3Cc2ccc(F)cc2)CO1	4.3%	2	3.0	48	-3.1	-20
COC(=O)CCCCC(=O)OC	0.0%	-6	-0.5	17	0.7	3
COc1ccc2c(CC(=O)N[C@@H](Cc3c[nH]c4ccccc34)C(=O)O)cc(=O)oc2c1	-1.6%	1	-0.8	-8	-0.7	-4
Cc1cccc(Cc2nc3ccccc3[nH]2)c1	3.3%	-11	-1.2	5	-3.5	10
Cc1csc(NC(=O)c2ccco2)n1	2.5%	2	-1.6	10	-5.7	5
Cc1cccc(NC(=S)N(CCc2ccncc2)C(C)C)c1C	0.8%	3	-0.7	-6	-2.9	3
C=CCOC(=O)C1=C(C)NC(C)=C(C(=O)OCC=C)C1c1ccc(C)o1	1.8%	-5	1.7	-12	-0.7	-25
CC(C)CCNC(=O)C1c2ccccc2Oc2ccccc21	0.1%	-1	0.0	38	7.0	4
Cc1cc(NC(=O)c2ccc(C)s2)n(-c2nc3ccccc3[nH]2)n1	1.5%	-6	1.2	3	-6.4	-6
COc1ccc(S(=O)(=O)N2CCCC2CNC(=O)C(=O)NCc2ccccn2)cc1 (stereo not given)	1.2%	-9	0.4	-5	3.4	1
Nn1c(SCc2cccc3ccccc23)nnc1-c1ccco1	-0.7%[38.3 µM]	0	-0.7	16	-1.4	4
O=C(N=C1SC2CS(=O)(=O)CC2N1c1ccccc1C(F)(F)F)C1CCCO1 (stereo not given)	0.4%	19	0.1	-2	-7.1	0
CSCCC(NC(=O)c1ccco1)C(=O)NCCc1ccc(F)cc1 (stereo not given)	2.2%	-3	0.5	-7	-2.8	3
CCO/N=C(/C)c1c(O)cc(-c2ccccc2)n(-c2ccccc2)c1=O	-0.4%	-3	-0.2	-1	0.6	1
O=C(CCl)N(Cc1cc(=O)[nH]c2ccccc12)c1ccccc1	-0.6%	-29	-0.4	-3	6.5	-18
CC(C)Cc1ccc(-c2ccc3nccn3c2)cc1	-1.4%	-22	0.5	33	-2.7	0
O=C(NCCc1ccccc1)c1ccc(CSc2nc3cccnc3n2Cc2ccc(F)cc2)cc1	-0.5%	.	2.7	10	.	.
CCOC(=O)c1cc2c(=O)n3ccccc3nc2n(CC2CCCO2)c1=NC(=O)c1cccc(C)c1 (stereo not given)	0.5%	.	0.9	3	.	.
COc1cc(O)c(NC(C)=O)c2nonc12	-1.8%[38.3 µM]	-4	0.3	-13	-2.0	5
COc1ccc(-n2nnnc2C2c3ccccc3C(=O)N2C2CCN(Cc3ccccc3)CC2)cc1 (stereo not given)	-0.7%	.	0.8	.	.	-3
Cc1cc(C(=O)OCC(=O)Nc2cccc(S(N)(=O)=O)c2)c(C)o1	-0.9%	1	0.6	-3	4.1	-16
CC(=O)Nc1ccc(NC(=O)CSc2ccc3nnc(-c4cccnc4)n3n2)cc1	0.2%	-1	-0.3	-3	2.5	-9
COc1ccc(NC(=O)[C@H](C)NC(=O)C2CCN(S(=O)(=O)c3ccc(C)cc3)CC2)cc1	1.5%	-3	-0.3	1	-3.5	-7
COc1ccc(CCNC(=O)[C@@H](NC(N)=O)C(C)C)cc1	-0.7%	-21	0.7	-24	-0.3	4
COc1ccc(NC(=O)CSc2ccc(-c3cccnc3)nn2)cc1	2.2%	-4	-0.2	-9	-1.0	-1
CCC(C)c1ccccc1OCC(=O)Nc1ccc(S(=O)(=O)Nc2cc(C)on2)cc1 (stereo not given)	-0.3%	.	-0.2	11	.	.
c1ccc(CNCCC(Cc2ccccc2)c2ccco2)cc1 (stereo not given)	?	-15	2.4	29	-1.8	-24
CN(C)c1ccc(NC(=O)CCn2c(=S)oc3ccccc32)cc1	3.3%	-2	-0.1	-10	0.1	-23
COc1ccc(N(C(=O)c2ccn[nH]2)C(C(=O)NC2CCCC2)c2ccc(F)cc2)cc1 (stereo not given)	-1.2%	-4	-0.2	-4	-2.6	-9
CC(=O)OCn1ncc(N2CCOCC2)c(Br)c1=O	1.5%	-1	-0.7	-12	-4.6	-5
O=C(Nc1ccc(Cl)cc1)OC(CN1CCCCC1)C(F)(F)F (stereo not given)	-0.4%	-18	1.0	23	-2.2	10
O=C(NC(=S)N1CCCCCC1)c1ccccc1	-1.3%	-5	-0.5	16	-3.5	2
COC(=O)c1cc(CNC(=O)C(C)NS(=O)(=O)c2ccc(C)c(C)c2)ccc1OC (stereo not given)	-0.2%	-3	-0.7	-4	5.1	-9
COc1ccc(Cl)cc1NC(=S)NCc1cccs1	-1.5%	-36	0.5	-7	-2.6	4
COc1ccc(C(=O)Nn2c(C)ccc2C)cc1OC	0.7%	-1	0.8	3	2.4	-6
COc1ccc(CNC(=O)CN2C(=O)NC(C)(c3cccc4ccccc34)C2=O)cc1OC (stereo not given)	-2.0%	1	0.9	-15	1.4	15
O=C(Nc1ccc(F)cc1)c1cc2cc3ccc(Cl)cc3nc2o1	1.1%	.	-0.5	-10	.	.
COc1cc(NC(=O)c2cc(-c3ccccc3)nc3c2cnn3C(C)C)cc(OC)c1OC	4.4%	-2	0.9	-4	-2.6	-4
Cc1cc(=O)n2[nH]c(NC(=O)c3cccc(Cl)c3)nc2n1	1.6%	.	-0.5	-4	.	.
CCN(CC(=O)Nc1ccccc1C(F)(F)F)C(=O)CCc1nc2sc3c(c2c(=O)[nH]1)CCCC3	?	0	0.5	4	0.6	-3
COc1ccccc1CNS(=O)(=O)c1cccc(S(=O)(=O)N2CCOCC2)c1	-0.7%	-17	0.1	-15	-1.2	37
CCN1CCN(C(=O)/C=C/c2ccc(OC)cc2)CC1	-0.7%	-4	-0.1	-1	-4.2	15
O=C(NCc1cccc(C(F)(F)F)c1)c1cccc(Cl)c1Cl	6.4%	-5	1.6	8	4.1	5
COc1ccc(NC(=O)c2nnn(Cc3ccc(Br)cc3F)c2N)c(OC)c1	3.3%	.	11	-16	.	.
Cc1ccc(NC(=O)c2ccc(OCc3c(C)noc3C)cc2)nc1	1.6%	5	-1.4	-9	-0.3	-3
O=c1cnc2ccccc2n1Cc1ccccc1C(F)(F)F	3.2%	-4	-0.1	33	-3.9	-1
Cc1ccccc1NC(=O)NC1(C(=O)NCC2CCCO2)CCCCC1 (stereo not given)	-1.5%	-7	-0.7	-2	-1.7	1
O=C(c1ccncc1)c1ccc(NC(=O)c2cccs2)cc1	1.9%	-3	0.3	6	-2.6	16
CCOC(=O)Nc1ccc(Oc2ccccc2)cc1	3.7%	16	2.4	-14	2.5	13
CCCOc1ccc(N2CC(C(=O)Nc3ccccc3OC)CC2=O)cc1 (stereo not given)	3.6%	0	-0.1	-17	0.7	5
COc1cccc(NC(=O)/C=C/c2ccco2)c1	0.2%	-11	-0.2	5	-5.8	-7
COc1cccc(CNCCOCCO)c1OC	0.7%	-27	-0.2	54	-2.3	?
Cc1nc(Nc2nc3c(c(=O)[nH]2)CCC3)nc2ccccc12	1.0%	-8	-0.8	-12	-0.5	-1
CC(C)(C)C1=NN=C2c3ccccc3C(=O)C21 (stereo not given)	-1.6%	-3	2.3	7	-3.6	-4
COc1cc(COCC(O)CN2C(C)CCCC2C)cc(OC)c1OC (stereo not given)	-0.7%	-8	-0.2	4	-3.4	-1
CC(C)=N/N=C1/NC(=O)C(c2ccc(Cl)cc2)S1 (stereo not given)	0.9%	-25	0.2	-3	-6.2	-24
CC1=C(C)CC(C(=O)Nc2ccc3c(c2)OCO3)C(C(=O)O)C1 (stereo not given)	-0.6%	-2	-0.3	-21	-6.3	4
Cc1ccc(NC(=O)CN2CCC(NC(=O)c3cccc(F)c3)CC2)cc1C	0.0%	-37	-0.4	-2	0.5	-1
CCn1ncc(/C=N\NC(=O)c2cc(-c3ccc(C)cc3C)nc3ccccc23)c1C	4.4%	-8	-0.3	5	-3.1	-5

Further structures follow.
SMILES	PINK1 expr mod	D2 potentiator	TRPML1 agonist	TRPML1 blocker	D2 ag	Six1-Eya2 blk
CC(C)=C1Cc2ccccc2C1=O	0.6%	-1	0.7	8	-3.7	1
Cc1ccc(C(=O)CC2(O)C(=O)N(Cc3ccccc3)c3ccc(Br)cc32)cc1 (stereo not given)	3.1%	.	0.3	-7	.	.
Cc1nc2c(C)cccn2c1/C(O)=C1\C(=O)C(=O)N(CCN(C)C)C1c1ccco1 (stereo not given)	1.0%	-13	-0.3	6	-6.4	0
COc1cccc(CNC(=O)c2ccc3c(c2)nc2n3CCC(C)C2)c1OC (stereo not given)	0.0%	.	0.7	-8	.	.
O=C(Nc1ccc2c(c1)OCO2)C1Cc2c(-c3ccccc3Oc3ccccc3)ccnc2O1 (stereo not given)	-0.8%	-4	-0.7	.	5.3	-26
CCCCN1CNC(=S)N(c2ccccc2OCC)C1	-0.2%	-6	1.1	-10	-3.1	2
CC1Cc2ccccc2N1CC(=O)Nc1ccc2c(c1)OCCCO2 (stereo not given)	-1.0%	-1	0.1	6	-2.5	-18
CC(C)(C)n1ncc2c(=O)n(CC(=O)c3ccc(Cl)cc3)cnc21	-2.2%	-13	-1.4	8	-0.8	-6
C1=C(c2ccccc2)CCN(c2ncnc3nc[nH]c23)C1	9.5%	-3	-0.7	-2	2.0	-13
Oc1cccc(C=NN=C2c3ccccc3-c3ccccc32)c1	6.0%	-13	2.2	12	0.8	?
CCCCCc1nc2sc3c(c2c(=O)n1N)CCC3	0.4%	20	-1.0	-2	-0.8	1

Structures from the list above with a furan ring, fused or not (10):
SMILES	PINK1 expr mod	D2 potentiator	TRPML1 agonist	TRPML1 blocker	D2 ag	Six1-Eya2 blk
CC1(C)Cc2c(sc3c2c(=N)n(Cc2ccco2)c(=O)n3Cc2ccc(F)cc2)CO1	4.3%	2	3.0	48	-3.1	-20
Cc1csc(NC(=O)c2ccco2)n1	2.5%	2	-1.6	10	-5.7	5
C=CCOC(=O)C1=C(C)NC(C)=C(C(=O)OCC=C)C1c1ccc(C)o1	1.8%	-5	1.7	-12	-0.7	-25
Nn1c(SCc2cccc3ccccc23)nnc1-c1ccco1	-0.7%[38.3 µM]	0	-0.7	16	-1.4	4
CSCCC(NC(=O)c1ccco1)C(=O)NCCc1ccc(F)cc1 (stereo not given)	2.2%	-3	0.5	-7	-2.8	3
Cc1cc(C(=O)OCC(=O)Nc2cccc(S(N)(=O)=O)c2)c(C)o1	-0.9%	1	0.6	-3	4.1	-16
c1ccc(CNCCC(Cc2ccccc2)c2ccco2)cc1 (stereo not given)	?	-15	2.4	29	-1.8	-24
O=C(Nc1ccc(F)cc1)c1cc2cc3ccc(Cl)cc3nc2o1	1.1%	.	-0.5	-10	.	.
COc1cccc(NC(=O)/C=C/c2ccco2)c1	0.2%	-11	-0.2	5	-5.8	-7
Cc1nc2c(C)cccn2c1/C(O)=C1\C(=O)C(=O)N(CCN(C)C)C1c1ccco1 (stereo not given)	1.0%	-13	-0.3	6	-6.4	0

Screens from PubChem BioAssay.

The order is random; any-hit rate near 1%.
